Screens (PubChem BioAssay)
NPYLR7 ag = mosquito NPYLR7 agonism | activation, % at 10 µM | HEK293T NPYLR7/Galpha15, GCaMP6s calcium fluorescence | hit rate 0.15% among 270,000; in the data active means activation above about 40%;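 further: 0% = vehicle and 100% = reference agonist at the receptor; some compounds past the cut are filed as inactive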
NPYLR7 ag max-min = further read-out of NPYLR7 ag, marked with its call; activation, %; measured here: Max-Min RFU normalised activation; some inactives read as strong as hits;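 span of the calcium signal over five minutes; 0% = vehicle and 100% = native peptide agonist; compound fluorescence can raise it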
The depositor's hits bear a star. This is a subset, so the mix of outcomes need not match the whole.

SMILES | NPYLR7 ag | NPYLR7 ag max-min
O=c1cc(CCl)[nH]c2nc3ccccc3n12 | 1 | 2
Cc1n[nH]c(C)c1CCCOc1ccccc1Br | 6 | 5
Cc1[nH]n(-c2cccc(Cl)c2)c(=O)c1C1=C(N2CCCCC2C)C(=O)N(Cc2ccccc2)C1=O (stereo unspecified) | 13 | 21
Cc1ccc(N2C(=O)CC(N3CCN(c4ccccc4F)CC3)C2=O)cc1 (stereo unspecified) | -6 | -14
OC1(CSc2nnc(NCc3ccc(F)cc3)s2)CCCCC1 | 8 | -6
CC(C)(C)n1ncc2c1CCNC2 | 5 | 0
Cc1cccc(CNC(=O)NCC2CCN(Cc3ccccn3)C2)c1 (stereo unspecified) | -1 | -2
CNC(=O)[C@H]1C[C@]2(CCCCN(CCOC)C2=O)N(C(=O)c2cccs2)[C@H]1c1ccccc1 | 6 | 11
CCCCCCCCCC(=O)Nc1ccc(N2CCCC2)c(C(=O)NC(C)c2ccccc2)c1 (stereo unspecified) | -3 | 4
CCc1nc2c(OCCOc3ccc(F)cc3)cccn2c1N(C)C(C)=O | 7 | -3
COc1cc(=O)n(-c2ccc(C)cc2)nc1C(=O)Nc1ccc(OC(F)(F)F)cc1 | 8 | 0
CC(C)n1nccc1NC(=O)c1cccc2c1OCCO2 | 7 | 6
O=C(O)CCn1c(-c2cccc3ccccc23)n[nH]c1=O | 7 | 7
Cc1ccc(C2=NN(C(=O)CN3CCCCC3C)C(c3ccc(Cl)cc3)C2)cc1C (stereo unspecified) | 14 | 17
Cc1nn(-c2ccccc2)c(N)c1N=O | 15 | 4
COc1ccccc1CN1C(=O)C(F)(F)Oc2cc3c(cc21)CCCC3 | -4 | -5
C=CCN1C(=O)NC(=O)/C(=C/c2cc(OC)c(OC(C)=O)c(OC)c2)C1=O | -4 | -8
CCc1ccccc1NC(=O)Cn1nnc(C(=O)NCc2ccccc2)c1N | 8 | 11
CCCCS(=O)(=O)N1CCC(C(=O)N2CC(C)C(=O)Nc3ccccc32)CC1 (stereo unspecified) | -3 | -4
Cc1ccc(NC(=O)N2CCc3c(cnn3-c3ccc(C#N)cc3)C2)cc1 | 1 | 19
O=C(NCc1nnnn1C1CCCCC1)Nc1ccccc1 | 0 | -1
O=C(O)CSc1nc2ccccc2n1Cc1ccccc1 | -6 | -11
O=[N+]([O-])c1cccc(-c2csc(Nc3ccc(Cl)cc3)n2)c1 | -2 | -7
CC1(C)O[C@@H]2C[C@@](OCc3cccc(Cl)c3)(C(=O)NCc3ccco3)CC(OCc3ccc(C#N)cc3)[C@@H]2O1 (stereo partly specified) | -3 | 8
COC(=O)Nc1ccc(S(=O)(=O)OCC(F)(F)C(F)(F)C(F)(F)C(F)F)cc1 | 7 | 4
SMILES | NPYLR7 ag | NPYLR7 ag max-min
COc1ccc(CC(=O)N2CCOC(COCc3cccc(C(F)(F)F)c3)C2)cc1F (stereo unspecified) | 21 | 21
O=C(c1csc(CSc2nnc(-c3ccccc3Cl)n2-c2ccccc2F)n1)N1CCN(C/C=C/c2ccccc2)CC1 | -4 | 1
CSCCNC(=O)C1(C)CCN1C(=O)c1cc(C)n(C)n1 (stereo unspecified) | 8 | 8
CSc1ccc(Cl)c(C(=O)N2CCCN(C(=O)c3ccncc3)CC2)c1 | 6 | 0
Cn1c(=O)c2c(nc(SCC(=O)OCc3ccccc3)n2Cc2ccccc2)n(C)c1=O | 4 | 3
Cc1nc(CC2CNCCO2)n(-c2ccc(Cl)cc2C)n1 (stereo unspecified) | -5 | -7
CCN(CC)c1onc(-c2ccc(F)cc2)c1CN(CC1CC1)C(=O)Nc1cccc(Cl)c1 | -4 | -2
O=C(NCc1ccccn1)C(C1CCCC1)N1CCN(C(=O)c2ccc(C(F)(F)F)cc2)CC1 (stereo unspecified) | -8 | -1
O=C(NCc1ccccc1)c1cc(=O)c(OCc2ccccc2)co1 | 5 | 4
CN1CCN(C(=O)c2nn3c(C(F)(F)F)cc(-c4ccco4)nc3c2Cl)CC1 | 13 | 12
COc1cccc(-c2nc(OCC(C)C)nn2-c2cccc(NC(=O)c3ccc([N+](=O)[O-])cc3)c2)c1 | 16 | 21
CS(=O)(=O)N1CCC(NCC(c2ccccc2)N2CCCCCC2)CC1 (stereo unspecified) | 0 | -3
CC(NC(=O)c1cc(NC(=O)Nc2ccccc2Br)ccc1N1CCCC1)c1ccccc1 (stereo unspecified) | 3 | 10
CCOC(=O)c1nn(-c2ccc(C)cc2)c(=O)cc1N1CC(C)OC(C)C1 (stereo unspecified) | 7 | 5
Brc1cccc(-c2nc(Nc3ccccc3)c3ccccc3n2)c1 | 0 | 14
COc1nn(C)cc1C(=O)N1CCOCC1 | 2 | 5
Cc1noc(-c2ccc(C(C)(C)C)cc2)c1C(=O)N(C)CCc1ccccn1 | 6 | 8
CCOP(=O)(OCC)C(C)(CC)OC(=O)C(C(F)(F)F)C(F)(F)F (stereo unspecified) | -8 | -13
O=C(NCCCCCCNC(=O)c1c(O)c2ccccc2oc1=O)c1ccccc1 | -2 | -8
Cc1nc2n(n1)C(=O)C(C(c1ccc(C(C)C)cc1)N1CCC(C)CC1)S2 (stereo unspecified) | 4 | -2
CC(C(=O)Nc1ccc(F)cc1)S(=O)(=O)c1ccc([N+](=O)[O-])cc1 (stereo unspecified) | 0 | -3
CC(=O)/C=C/c1ccccc1O | -2 | -4
Cc1ccc(C(=O)N2c3cccc4c3[C@@H](C[C@H]2C(N)=O)CN(C)C4=O)cc1 | 1 | 7
COCCNC(=O)COc1coc(CN2CCN(c3ccccc3)CC2)cc1=O | -1 | 41
CC1(C(=O)Nc2ccccc2Br)CCN1C(=O)Cc1ccccc1 (stereo unspecified) | 2 | 2
SMILES | NPYLR7 ag | NPYLR7 ag max-min
Cc1cccc(C(=O)N(CCn2cccn2)c2nc3c(Cl)cccc3s2)c1 | -18 | -22
COCC(=O)Nc1cnn(-c2cccc(C(=O)N3CCCC(COc4ccccc4F)C3)c2)c1 (stereo unspecified) | 10 | 1
CCN(CC)c1ccc(/C=N\Nc2nc(C)cc(COC)c2C#N)cc1 | 9 | 5
Cc1cnc(CN2CCN(C)CC23CCCCC3)cn1 | 7 | 3
COc1cccc(Cl)c1-c1ccc2cc[nH]c(=O)c2c1 | 1 | -4
COc1cc(NC(=O)CN2CCN(Cc3csc4ccccc34)CC2)cc(OC)c1 | 5 | 4
CCN(CC)c1ccc(C(=O)NCCNC(=O)c2ccccc2F)cn1 | -6 | -8
CCOC(=O)c1c(NC(=O)c2ccccc2F)sc2c1CCC2 | -3 | -5
COc1cccc(C(CN2CCN(C(=O)[C@H](C)OC(C)=O)CC2)OCc2ccc(C#N)cc2)c1 (stereo partly specified) | 2 | 0
COc1ccc(S(=O)(=O)Oc2cc(CN(CC(C)C)C(=O)c3ccco3)ccc2OC)cc1 | -5 | 4
COc1ccc2[nH]c(=O)c(CN(C)Cc3c(C)noc3C)cc2c1 | 9 | 4
COc1ccc(Br)c(Cn2c(C)c(C(=O)NCc3ccccc3)sc2=O)c1 | 14 | 7
CCc1nc2n(n1)C(=O)C(C(c1cccc(Cl)c1)N1CCC(C)CC1)S2 (stereo unspecified) | -3 | 17
CNC(=O)CN1CCC(CN(C)c2nc(C3CC3)ns2)CC1 | -2 | -1
CCOC(=O)c1ccc2c(c1)nc(SCc1cccc(Br)c1)n2Cc1cccc(F)c1 | -7 | -10
CCOC(=O)c1c(C)oc2nc(CN(C)Cc3cccc(Cl)c3)[nH]c(=O)c12 | 2 | 3
CN(C)CCN(Cc1c(-c2ccccc2)noc1N1CCCC1)C(=O)c1ccco1 | 10 | 14
CN(C)C(=O)CCCS(=O)(=O)Cc1nc(Cc2ccccc2)no1 | 2 | 4
COc1ccc(Br)cc1CNC(=O)NCc1ccoc1 | 11 | 5
Cc1ccc(C(=O)Nc2ccc(SCC(=O)N3CCOCC3)nn2)cc1 | 5 | 7
Cc1cc(C=NNc2nc(-c3ccccc3)cs2)c(C)n1C1CCCC1 | -5 | -10
CCN1C(=O)C2C(c3ccc(O)c(OC)c3)NN(Cc3ccccc3)C2C1=O (stereo unspecified) | -9 | -14
N#Cc1ccc(OCC(=O)Nc2ccc(Cl)cc2F)cc1 | -2 | -3
CCOC(=O)N1CCC(NCC(O)COc2ccccc2C(C)C)CC1 (stereo unspecified) | 0 | -4
Cc1ccc(-c2cc3c(=O)n(CC(=O)Nc4ccc(F)cc4C)ccn3n2)cc1 | 13 | 12
SMILES | NPYLR7 ag | NPYLR7 ag max-min
O=C(CCn1cncn1)Nn1cnc2sc3c(c2c1=O)CCCC3 | 1 | -2
O=C(CC1=CCNCC1)N1CCC(c2cc(Cc3ccccc3)[nH]n2)CC1 | -2 | -7
CC(C)CN(CC(=O)N(Cc1ccccc1)Cc1cccn1Cc1ccc(F)cc1)C(=O)c1ccc(Br)cc1 | 0 | 3
CCSc1nnc(SCc2cccc(OC)n2)s1 | -8 | -9
CCc1nc(-c2ccccc2)nc(N2CCN(C(=O)c3ccco3)CC2)c1Cc1ccccc1F | 15 | 22
COc1cccc(CN2CCN(C(=O)c3cnn4cc(C)cnc34)CC2=O)c1 | 3 | -1
CC(C)(C)C1CCC(C(=O)NCCc2nnc3ccccn23)CC1 (stereo unspecified) | -23 | -23
O=S1(=O)CCC(NC(=S)Nc2cccc(Br)c2)C1 (stereo unspecified) | 0 | -1
Cc1cc(C)nc(SCC(=O)NNC(=O)c2ccccc2Br)n1 | -1 | -9
CN(Cc1ncccc1C(=O)O)Cc1nccn1Cc1ccccc1 | 2 | 0
CC(C)CN1CCC1(C)C(=O)Nc1ccc(N(C)C)cc1 (stereo unspecified) | 4 | 3
CC(C)c1cnc2c(c1SCc1cccnc1)c(=O)n(C)c(=O)n2C | 6 | 10
CC(=O)N1N=C(c2ccc(NS(=O)(=O)c3ccccc3)cc2)CC1c1cccs1 (stereo unspecified) | -4 | 5
CC(CNC(=O)c1sccc1Cl)Oc1cccnc1 (stereo unspecified) | -1 | -2
CSc1nc2ncc(C(=O)c3cc(Cl)cc(Cl)c3O)cc2c(=O)[nH]1 | 3 | 0
CC(C)N1C(=O)C2(SCCN2C(=O)c2ccco2)c2ccccc21 (stereo unspecified) | -6 | 5
O=C(Nc1cccc(-c2noc(C3CC3)n2)c1)C1CCOCC1 | -3 | -5
Fc1cccc(CN2CCN(Cc3ccc4cccc(Cl)c4n3)CC2)c1 | -1 | -6
O=C(CCn1ccc(=O)[nH]c1=O)NCc1ccc2[nH]c3c(c2c1)CCCCC3 | 7 | 4
CN1CCC(C)(C(=O)Nc2cnc3ccccc3c2)C1 (stereo unspecified) | 1 | -1
CCOC(=O)c1ccc(N=CC(C#N)c2nc(C3CC3)cs2)cc1 (stereo unspecified) | 0 | -1
COCCN(CC(=O)N(CCc1ccc(OC)c(OC)c1)Cc1sccc1C)S(=O)(=O)c1ccc([N+](=O)[O-])cc1 | -4 | 5
Cc1ccccc1Nc1nc(N)nc(Cn2c(=O)cnc3ccccc32)n1 | 1 | -5
O=C(C=Cc1ccc(F)cc1)c1ccc(OC(F)F)cc1 | -2 | -5
Cc1cccnc1CC(C)Nc1nc(-c2cccnc2)nc2c1CCNC2 (stereo unspecified) | 5 | 2
O=[N+]([O-])c1cc(Br)ccc1N1CCN(c2ccccc2)CC1 | 3 | 1
O=C1NCC2(CCCN(C(=O)c3scc4c3OCCO4)C2)O1 (stereo unspecified) | 6 | 2
COc1ccc(-c2cc(C(=O)N(C)CCc3ccc(OC)c(OC)c3)n(-c3cccc([N+](=O)[O-])c3)n2)cc1 | -9 | -1

Complete entries from above. Screens in order: NPYLR7 ag, NPYLR7 ag max-min
O=C(C=Cc1ccc(F)cc1)c1ccc(OC(F)F)cc1 is entered as -2, -5
Fc1cccc(CN2CCN(Cc3ccc4cccc(Cl)c4n3)CC2)c1 is entered as -1, -6

Entries above containing an aryl methoxy group (18):
SMILES | NPYLR7 ag | NPYLR7 ag max-min
COc1cc(=O)n(-c2ccc(C)cc2)nc1C(=O)Nc1ccc(OC(F)(F)F)cc1 | 8 | 0
COc1ccccc1CN1C(=O)C(F)(F)Oc2cc3c(cc21)CCCC3 | -4 | -5
C=CCN1C(=O)NC(=O)/C(=C/c2cc(OC)c(OC(C)=O)c(OC)c2)C1=O | -4 | -8
COc1ccc(CC(=O)N2CCOC(COCc3cccc(C(F)(F)F)c3)C2)cc1F (stereo unspecified) | 21 | 21
COc1cccc(-c2nc(OCC(C)C)nn2-c2cccc(NC(=O)c3ccc([N+](=O)[O-])cc3)c2)c1 | 16 | 21
COc1nn(C)cc1C(=O)N1CCOCC1 | 2 | 5
COc1cccc(Cl)c1-c1ccc2cc[nH]c(=O)c2c1 | 1 | -4
COc1cc(NC(=O)CN2CCN(Cc3csc4ccccc34)CC2)cc(OC)c1 | 5 | 4
COc1cccc(C(CN2CCN(C(=O)[C@H](C)OC(C)=O)CC2)OCc2ccc(C#N)cc2)c1 (stereo partly specified) | 2 | 0
COc1ccc(S(=O)(=O)Oc2cc(CN(CC(C)C)C(=O)c3ccco3)ccc2OC)cc1 | -5 | 4
COc1ccc2[nH]c(=O)c(CN(C)Cc3c(C)noc3C)cc2c1 | 9 | 4
COc1ccc(Br)c(Cn2c(C)c(C(=O)NCc3ccccc3)sc2=O)c1 | 14 | 7
COc1ccc(Br)cc1CNC(=O)NCc1ccoc1 | 11 | 5
CCN1C(=O)C2C(c3ccc(O)c(OC)c3)NN(Cc3ccccc3)C2C1=O (stereo unspecified) | -9 | -14
CCSc1nnc(SCc2cccc(OC)n2)s1 | -8 | -9
COc1cccc(CN2CCN(C(=O)c3cnn4cc(C)cnc34)CC2=O)c1 | 3 | -1
COCCN(CC(=O)N(CCc1ccc(OC)c(OC)c1)Cc1sccc1C)S(=O)(=O)c1ccc([N+](=O)[O-])cc1 | -4 | 5
COc1ccc(-c2cc(C(=O)N(C)CCc3ccc(OC)c(OC)c3)n(-c3cccc([N+](=O)[O-])c3)n2)cc1 | -9 | -1
